Screens: PubChem, National Center for Advancing Translational Sciences (NCATS)
Eya2 inh: qHTS Assay for Inhibitors of the Phosphatase Activity of Eya2 | recombinant Eya2, OMFP fluorescence dephosphorylation (OMFP is methylfluorescein phosphate) | Potency, µM (series often up to 76.9 µM), without a hit: at the highest dose activity, negative = inhibition, most hits filed as inhibitors | hit rate 0.006% among 330,000 | AID 488837, 2010; also: potency is read from the fitted curve at half-maximal effect; % is scaled to controls: 0 for no effect and ±100 for the full control effect
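Eya2 (0.2 uM) preincubated 10 min at ambient with compound, then OMFP substrate added at 50 uM; 10 min reaction in 50 mM HEPES pH 7.5, 50 mM NaCl, 5 uM MgCl2, 0.05% BSA, 1 mM DTT. Fluorescence read at Ex 485/Em 525 nm.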
USP2a inh: qHTS Assay for Inhibitors of Ubiquitin-specific Protease USP2a Using CHOP2 as the Reporter; Ubiquitin carboxyl-terminal hydrolase 2 (Homo sapiens), O75604; USP2 core, Ub-CHOP2 coupled fluorogenic reporter, 485/531; Potency, µM (titrated, usually from 38.3 µM), for the others: at the highest dose activity change, negative = inhibition, usual class: inhibitors; hit rate 0.01% among 330,000; AID 463254, 2010;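 also: potency is read from the fitted curve at half-maximal effect; plate controls were DMSO wells for no effect and full inhibition by NEM control for full effect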
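Cell-free coupled assay: 10nM USP2 core preincubated 30min RT with compound in Tris-HCl pH 8.0/CaCl2/CHAPS buffer, then 25nM Ub-CHOP2 and 25nM reporter substrate; fluorescence (Ex 485/Em 531) read after 60min RT, normalized to NEM inhibition, concentration-response curves fitted.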
Mito fusion act: qHTS Assay for Small Molecule Inhibitors of Mitochondrial Division or Activators of Mitochondrial Fusion; Potency, µM (highest dose often 46.1 µM), without a hit: top-dose growth rescue (activation), hits mostly activators; hit rate 0.23% among 320,000; S. cerevisiae fusion-defective mutant growth rescue, CellTiterGlo 48 h;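 also: potency is read from the fitted curve at half-maximal effect; % of control where 0% means no effect; nearly all actives have a fitted effect of over 45% in size; temperature-sensitive fusion mutants such as fzo1-1 at 37 °C on non-fermentable ethanol glycerol medium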
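Luminescent cell viability in 1536-well qHTS format served as the measure of rescued growth in ts fusion-mutant S. cerevisiae cultured on non-fermentable YPEG for 48 hours at 37C.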
hERG WT inh: qHTS for Inhibitors of KCHN2 3.1: Wildtype qHTS. U2OS, BacMam KCNH2, thallium flux FluxOr; active compounds read low. activity change, % at 1.84 µM. hit rate 0.37% among 340,000. AID 720551, 2013;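 active = maximum activity change below -70%; inconclusive = maximum activity change between -70% and -50%; inactive = maximum activity change above -50%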; also: % is scaled to controls: 0 for no effect and ±100 for the full control effect
Target sequence (Q12809 whole entry, looked up): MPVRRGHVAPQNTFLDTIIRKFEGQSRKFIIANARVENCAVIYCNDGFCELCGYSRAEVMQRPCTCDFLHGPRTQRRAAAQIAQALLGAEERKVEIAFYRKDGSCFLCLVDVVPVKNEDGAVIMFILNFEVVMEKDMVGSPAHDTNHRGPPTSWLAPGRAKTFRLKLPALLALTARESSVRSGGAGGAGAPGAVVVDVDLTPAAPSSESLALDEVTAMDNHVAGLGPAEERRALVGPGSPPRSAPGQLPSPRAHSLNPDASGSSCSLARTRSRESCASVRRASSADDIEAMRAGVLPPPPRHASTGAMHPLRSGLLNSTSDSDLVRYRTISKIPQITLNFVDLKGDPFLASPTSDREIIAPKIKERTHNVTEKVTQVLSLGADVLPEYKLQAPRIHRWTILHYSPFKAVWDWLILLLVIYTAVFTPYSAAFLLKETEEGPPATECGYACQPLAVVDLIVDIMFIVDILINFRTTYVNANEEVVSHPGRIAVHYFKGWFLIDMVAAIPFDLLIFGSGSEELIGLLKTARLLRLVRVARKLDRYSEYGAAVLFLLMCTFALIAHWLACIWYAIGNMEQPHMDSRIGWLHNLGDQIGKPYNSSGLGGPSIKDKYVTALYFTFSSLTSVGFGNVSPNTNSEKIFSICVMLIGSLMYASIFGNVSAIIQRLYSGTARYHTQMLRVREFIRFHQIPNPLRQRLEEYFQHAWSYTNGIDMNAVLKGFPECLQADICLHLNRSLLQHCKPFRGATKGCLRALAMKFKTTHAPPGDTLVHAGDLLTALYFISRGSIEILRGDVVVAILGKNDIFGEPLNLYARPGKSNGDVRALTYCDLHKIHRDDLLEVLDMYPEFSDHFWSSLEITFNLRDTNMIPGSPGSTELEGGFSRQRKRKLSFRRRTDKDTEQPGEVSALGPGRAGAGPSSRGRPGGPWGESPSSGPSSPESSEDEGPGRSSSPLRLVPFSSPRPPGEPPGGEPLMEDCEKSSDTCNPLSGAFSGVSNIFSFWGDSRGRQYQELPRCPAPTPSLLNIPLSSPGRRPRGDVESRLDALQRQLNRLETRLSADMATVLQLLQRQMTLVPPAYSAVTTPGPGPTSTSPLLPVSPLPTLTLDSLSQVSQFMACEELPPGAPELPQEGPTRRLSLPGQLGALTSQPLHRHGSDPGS
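U2OS cells were transduced with wild-type KCNH2 virus (2.03 x 10^8 / mL) for 4 h at room temperature, then cultured overnight at 37 C. Thallium flux was read with FluxOr dye. Rate constants were normalized to DMSO controls.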
Menin MLL FP TR: qHTS Assay for Inhibitors Targeting the Menin-MLL Interaction in MLL Related Leukemias: Competition With Texas Red Labeled MLL-derived Mutant Peptide. O00255. Menin + Texas Red MLL mutant peptide, fluorescence polarization. Potency, µM (titrated, usually from 61.6 µM), without a hit: at the top dose FP activity change, negative = inhibition, hits mostly inhibitors. hit rate 0.23% among 270,000. AID 1768, 2009; active = well fitted inhibition curve with a large enough effect in the polarisation, with a control signal flat, not every such curve was filed as active; inconclusive = small, poorly fitted or top-dose-only effect, or effect the other way, or a change in a side signal; inactive = no such curve, though single readings can be large or run the other way; the % refers to the polarisation; also: potency is read from the fitted curve at half-maximal effect; % of control where 0% means no effect; many of its hits are not listed in these tables
MBNL1 CUG block: qHTS Assay for Inhibitors of MBNL1-poly(CUG) RNA binding; Muscleblind-like protein 1 (Homo sapiens), Q9NR56; TR-FRET MBNL1-His/biotin-(CUG)12 binding, 665/545 ratio; Potency, µM (highest dose often 57.5 µM), for the others: at the top dose activity change, negative = inhibition, actives largely listed as inhibitors; hit rate 0.036% among 280,000; active = well fitted inhibition curve with a large enough effect in the signal ratio, with a control signal flat, not every such curve was filed as active; inconclusive = small, poorly fitted or top-dose-only effect, or effect the other way, or a change in a side signal; inactive = no such curve, though single readings can be large or run the other way; the % refers to the signal ratio; also: potency is read from the fitted curve at half-maximal effect; % is scaled to controls: 0 for no effect and ±100 for the full control effect
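Ratiometric TR-FRET (665 over 545 nm, excitation 340 nm) tracks disruption of MBNL1-His/biotin-(CUG)12 complex after 60 min at room temperature, with compounds at 92 nM to 58 uM final.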
GALK inh: qHTS Assay for Inhibitors of Human Galactokinase (GALK); P51570; Purified GALK, Kinase-Glo residual ATP luminescence; Potency, µM (titrated, usually from 57.5 µM), without a hit: at the top dose activity change, negative = inhibition, most hits filed as inhibitors; hit rate 0.007% among 270,000; also: potency is read from the fitted curve at half-maximal effect; % is scaled to controls: 0 for no effect and ±100 for the full control effect
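5 nM enzyme, 35 uM ATP, 100 uM galactose, 20 mM HEPES pH8.0, 5 mM MgCl2; 1 h RT; residual ATP by Kinase-Glo Plus luminescence, qHTS format.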
TSHR antagonist: Antagonists of the Thyroid Stimulating Hormone Receptor: HTS campaign; activity change, negative = inhibition, % at 11.5 µM; TSHR-expressing cells, TSH-stimulated cAMP HTRF, 2 h; active compounds read low; hit rate 0.2% among 330,000; Thyrotropin receptor (Homo sapiens), P16473;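 active = activity change below a set negative limit, meaning inhibition stronger than a set level, cut at about -70% in these data; inconclusive = activity change between two set negative limits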; also: % is scaled to controls: 0 for no effect and ±100 for the full control effect
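TSHR-expressing cells, 200/well, pre-treated with compound, then stimulated with EC80 TSH (4nM final) for 2 hours at 37 deg C. cAMP measured by competitive HTRF: anti-cAMP cryptate antibody in lysis buffer plus cAMP-d2, read after 30 minutes at room temperature.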
BCR signal inh: qHTS Assay to Find Inhibitors of Chronic Active B-Cell Receptor Signaling | ABC-DLBCL IkBa-CBG/CBR reporter, luminescence ratio, 4 h | hit rate 0.05% among 340,000 | Potency, µM (doses to about 46.1 µM), without a hit: top-dose ratio change, negative = lower green/red ratio, hits mostly inhibitors; active = well fitted inhibition curve with a large enough effect in the signal ratio, with a control signal flat, not every such curve was filed as active; inconclusive = small, poorly fitted or top-dose-only effect, or effect the other way, or a change in a side signal; the % refers to the signal ratio;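 also: potency is read from the fitted curve at half-maximal effect; plate controls were basal doxycycline-induced cells for no effect and cells given 10 µM MG132 for full effect; MG132 reads +100%, hits lower the ratio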
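TMD8 ABC-DLBCL cells carrying doxycycline-inducible green luciferase fused to IkappaBalpha plus unfused red luciferase were exposed to compounds (up to 46 uM) for 4 hrs at 37C. Activity came from the overlap-corrected green/red luminescence ratio.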
Numbers without * were called inactive; ? = inconclusive; / = no result given; [ ] = dose if it differs, or a comment. Unless noted, calls follow the shape of the dose curve; as a rule, active = well fitted curve in the direction sought with a large enough effect; inconclusive = small, poorly fitted or top-dose-only effect, or another doubt; inactive = no such curve, though single readings can be large; an effect the other way counts as inactive or inconclusive. Some of the compounds tested; rates above refer to the full screens.

SMILES	Eya2 inh	USP2a inh	Mito fusion act	hERG WT inh	Menin MLL FP TR	MBNL1 CUG block	GALK inh	TSHR antagonist	BCR signal inh
CCc1ccccc1NC1c2ccccc2C(=O)N1c1cccnc1 (centres undefined)	24%	1%	6%	7	-7%	-10%	0%	-4	0%
NC1=NC2(CCC(c3ccccc3)CC2)n2c(nc3ccccc32)N1 (centres undefined)	13%	?	1%	12	-3%	-2%	1%	-5	?
CCCOc1ccc(N2C(=O)C3ON(c4ccccc4)C(c4ccc(O)c(OC)c4)C3C2=O)cc1 (centres undefined)	-5%	0%	-4%	1	-2%	1%	3%	-2	-10%
CSc1oc(-c2ccco2)nc1S(=O)(=O)c1ccc(F)cc1	-11%	-2%	1%	-11	?	10%	-4%	10	16%
COc1ccc(C)cc1-n1nnnc1SCC(=O)Nc1cc(C)on1	1%	-1%	5%	-24	1%	4%	1%	-1	6%
COc1ccc(C(=O)c2coc3ccc(O)c(CN4CCCC4)c23)cc1	-15%	-5%	1%	1	0%	0%	2%	2	-19%
COCCNC(=O)C(c1ccc(O)cc1)N(Cc1ccco1)C(=O)CCC(=O)Nc1nccs1 (centres undefined)	6%	2%	-5%	8	-3%	-6%	1%	2	-1%
Cc1ccc(C(C)C)c(OCC(=O)Nc2ccccc2N2CCN(C)CC2)c1	1%	-13%	0%	30	?	-17%	0%	2	?
CCOC(=O)c1ccc(NC(=O)CCC(CC)C(=O)O)cc1 (centres undefined)	5%	1%	-3%	-2	-13%	0%	-3%	9	-3%
Cc1nc2ccc(S(=O)(=O)NCC(=O)N3CCc4ccccc43)cc2s1	13%	-2%	-3%	3	-5%	-10%	0%	-2	-10%
CC(=O)Nc1ccc(S(=O)(=O)N2CCC(N(C)CCC(C)C)CC2)cc1	-9%	0%	-2%	67	1%	-6%	-2%	-1	-1%
CCOC(=O)N1CCN(c2c(F)cc3[nH]c(=S)[nH]c3c2Br)CC1	-23%	-3%	24%	12	0%	-13%	0%	1	?
CN1C(=O)CS(=O)c2ccc(C(=O)NC3CC3)cc21 (centres undefined)	4%	0%	-2%	-5	-2%[11.7 µM]	5%	2%	7	-6%
COc1cccc2c(=O)c(C/C=C(/C)Cl)c(C)[nH]c12	0%	0%	23%	3	8%	0%	2%	-7	19%
CCOC(=O)N1CCC(NC(=O)CCS(=O)(=O)c2ccc3c(c2)CCN3C(=O)CC)CC1	-7%	1%	-1%	3	-3%	2%	0%	0	9%
CC(=O)Nc1cccc(NC(=O)CSc2nc(C)c(C)c(C)c2C#N)c1	8%	5%	-3%	-1	83%[activator]	0%	0%	-4	-3%
C=CCNC(=O)c1ccc2c(c1)nnn2C	25%	-1%	-5%	1	-9%	-2%	3%	-9	-3%
CC(NC(=O)CC(O)(C(F)(F)F)C(F)(F)F)c1ccccc1 (centres undefined)	2%	-1%	-7%	-17	46%[activator]	-1%	1%	-3	2%
COc1ccc(-c2nnc(SCc3csc(N)n3)n2C)cc1	17%	0%	-4%	0	-7%	5%	2%	-7	0%
COCC(C)NCc1ccccc1C (centres undefined)	12%	-1%	-2%	-4	-24%	-3%	-3%	-5	-2%
CCOC(=O)C1(O)CSc2nc3sc(C(=O)O)c(C)c3c(=O)n21 (centres undefined)	-9%	0%	-7%	-7	?	-3%	-4%	6	-2%
COc1ccccc1NC(=O)c1nnn(CC(=O)Nc2cccc(SC)c2)c1N	-15%	-1%	0%	-2	?	12%	0%	-13	?
CC(=O)Nc1ccc(N2CCN(C(C)=O)CC2)cc1	13%	8%	7%	-2	31%[activator]	-13%	4%	5	?
CCOC(=O)c1cnc(-c2ccccc2)[nH]c1=O	27%	3%	-3%	25	1%	-7%	5%	-8	-2%
COc1cccc(-c2cc(C(F)(F)F)n3ncc(C(=O)NCC4CCCO4)c3n2)c1 (centres undefined)	3%	3%	3%	4	-6%	15%	4%	-7	8%
SMILES	Eya2 inh	USP2a inh	Mito fusion act	hERG WT inh	Menin MLL FP TR	MBNL1 CUG block	GALK inh	TSHR antagonist	BCR signal inh
Cc1csc2ncc(C(=O)Nc3ccccc3F)c(=O)n12	-1%	0%	6%	20	17%	?	0%	-4	5%
Cn1c(-c2ccccc2)cnc1SCC(N)=O	4%	0%	-4%	23	0%	6%	4%	-9	1%
O=C(O)C1CC=CCC1C(=O)Nc1ccc(S(=O)(=O)N2CCCc3ccccc32)cc1 (centres undefined)	-6%	0%	3%	-15	16%	1%	-3%	20	-1%
Fc1ccc(-c2nnc(-c3ccc(Cl)cc3)o2)cc1	7%[15.4 µM]	1%	-1%	-26	-1%	10%	2%	0	?
O=c1c2nnn(Cc3ccccc3)c2ncn1-c1ccccc1	8%	1%	4%	26	0%	-5%	-2%	5	8%
C#CC1(O)CC(C)NCC1(C)CCC#N (centres undefined)	-8%	2%	-4%	7	1%	-2%	-4%	19	-8%
O=C1COc2ccc(C(=O)COC(=O)c3ccc4ccccc4n3)cc2N1	-2%	0%	1%	9	5%	57%[activator]	3%	2	-3%
CCCc1[nH]nc2c1C(CCc1ccccc1)C(C#N)=C(N)O2 (centres undefined)	3%	3%	2%	8	11%	-1%	0%	-21	12%
CCNc1nc(Oc2ccc(=O)n(C)n2)nc(N2CCOCC2)n1	0%	0%	-3%	-18	-7%	1%	2%	-5	-2%
COc1ccc(Cl)c(Cn2c(NCC(C)O)nc3c2c(=O)n(C)c(=O)n3C)c1 (centres undefined)	6%	3%	-7%	-1	6%	-7%	-3%	5	6%
CC(=O)c1cccc(NC(=O)C2CCCCC2)c1	3%	1%	2%	3	2%	6%	1%	7	-2%
Cc1cc(=O)[nH]c2n[nH]c(-c3ccccc3)c12	14%	4%	1%	-2	-16%	0%	0%	-7	?
COC(=O)c1sc(NC(=O)c2ccco2)nc1C	16%	1%	3%	-5	-17%	58%[activator]	7%	4	8%
CCn1c(SCC(=O)Nc2ccccc2-c2ccccc2)nnc1-c1ccoc1C	5%	1%	3%	7	-3%	-3%	2%	3	5%
COc1ccc(C(=O)N2CCN(C(=O)c3cc(OC)c(OC)c(OC)c3)CC2)cc1	2%	0%	-4%	7	7%	5%	-1%	9	?
Cc1cccc2cc(CN(Cc3nnnn3Cc3ccco3)C3CCCC3)c3nnnn3c12	1%	2%	?	-13	12%	14%	2%	-3	5%
COc1ccc(Cl)cc1S(=O)(=O)N1CCN(C(=O)COc2ccccc2)CC1	10%	2%	0%	-18	15%	-1%	-3%	3	-9%
COc1ccc(-c2nnnn2-c2ccccc2OC)cc1	6%	2%	7%	-35	5%	-2%	0%	-3	-3%
CCOC(=O)N1CCC(NC(=O)c2cc(S(=O)(=O)N3CCC4(CC3)OCCO4)ccc2F)CC1	-9%	-9%	4%	2	-18%	-1%	1%	-8	0%
Cc1nnc(SCC(=O)N2CCc3ccccc32)s1	-7%	1%	3%	-11	-5%	21%	-3%	-3	-1%
CCN1CCN(Cc2ccc(OC)c(OCc3ccccc3)c2)CC1	/	/	-3%	10	4%	-6%	1%	/	/
Cc1nc2sc(C(c3ccc(Cl)cc3)N3CCN(c4ccccc4F)CC3)c(O)n2n1 (centres undefined)	-16%	-2%	1%	-7	?	3%	-3%	-4	0%
Cc1nnc(SCC(=O)c2c(N)n(C)c(=O)n(C)c2=O)n1Cc1ccccc1	-5%	5%	1%	18	-4%	2%	2%	-8	2%
Nc1ccc(-c2cnc(-c3ccc(N)cc3)nc2)cc1	4%	12%	3%	-6	?	?	3%	11	?
Cn1c(SCC(=O)N2CCCc3ccccc32)nnc1-c1ccccc1	17%	2%	10%	6	0%	0%	4%	15	5%
Cn1c(=O)[nH]c(=O)c2c1nc(CN1CCN(c3ccc(F)cc3)CC1)n2CCc1ccccc1	6%	4%	0%	15	10%	-8%	-5%	-20	3%
Fc1ccccc1CCNc1nnnn1-c1ccccc1	3%	-1%	5%	-13	-2%	7%	0%	-5	18%

Another view of part of the listing above:
Structure | Eya2 inh | USP2a inh | Mito fusion act | hERG WT inh | Menin MLL FP TR | MBNL1 CUG block | GALK inh | TSHR antagonist | BCR signal inh
CCn1c(SCC(=O)Nc2ccccc2-c2ccccc2)nnc1-c1ccoc1C | 5% | 1% | 3% | 7 | -3% | -3% | 2% | 3 | 5%
COc1ccc(C(=O)N2CCN(C(=O)c3cc(OC)c(OC)c(OC)c3)CC2)cc1 | 2% | 0% | -4% | 7 | 7% | 5% | -1% | 9 | ?
